Bioassay records deposited in PubChem by Broad Institute.
rRNA inh HTS: inhibitors of bacterial rRNA selective over humanized ribosomes; GFP signal change (wild-type ribosome), % (test concentration not listed); AID 720706; 1.6% of 350,000 active; E. coli WT GFP vs humanized-ribosome RFP mutants, fluorescence, 24 h; stronger effect = lower value; DMSO median 0, no signal -100;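 active = significant combined selectivity score with lowered wild-type GFP, culture density cut under 30%, mutant RFP and density less affected; inactive = any of these conditions unmet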; also: one replicate is shown; some compounds called inactive have numbers as strong as hits
rRNA inh HTS OD600: further read-out of rRNA inh HTS, marked with its call; OD600 change, %; measured here: OD600 growth;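 optical density of the mix in the first replicate; 0 = DMSO median and -100 = no signal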
rRNA inh HTS RFP: further read-out of rRNA inh HTS, marked with its call; RFP signal change, %; measured here: RFP humanized mutant strains;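 first replicate; 0 = DMSO median and -100 = no signal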
* = called active by the depositor; & = joins results of further samples. Only part of the results is shown (hit frequency here may not be typical).

The first 7 entries as a preview:
SMILES	rRNA inh HTS	rRNA inh HTS OD600	rRNA inh HTS RFP
COc1ccccc1NC(=O)Nc1nc(C(N)Cc2ccc(Cl)cc2)cs1 (stereo unspecified)	-62	-78	-15
COc1cccc(CNC(=O)C[C@H]2CC[C@H](NC(=O)C3CC3)[C@@H](CO)O2)c1	2	8	-1.2
C[C@H](CO)N1C[C@H](C)[C@@H](CN(C)Cc2ccc(Oc3ccccc3)cc2)Oc2c(NC(=O)C3CCCCC3)cccc2C1=O	3	8	-3.0
O=C(NCC[C@H]1CC[C@H](NS(=O)(=O)c2ccccc2)[C@@H](CO)O1)c1cc(Cl)cc(Cl)c1	-9	-11	6.4
C[C@@H]1CN([C@@H](C)CO)C(=O)c2cc(NS(=O)(=O)c3ccccc3)ccc2O[C@@H](C)CCCCO[C@@H]1CN(C)Cc1ccccc1	5	-8	1.6
C[C@H]1CN([C@@H](C)CO)C(=O)c2cccc(NC(=O)Nc3ccc(F)cc3)c2O[C@@H]1CN(C)C(=O)Nc1ccc(C(F)(F)F)cc1	-4	6	-1.8
COc1cc2c(c3c1c(=O)c1cccc(F)c1n3C)C=CC(C)(C)O2	-33	-47	-7.6

All compounds of this part (from the top)
SMILES	rRNA inh HTS	rRNA inh HTS OD600	rRNA inh HTS RFP
COc1ccccc1NC(=O)Nc1nc(C(N)Cc2ccc(Cl)cc2)cs1 (stereo unspecified)	-62	-78	-15
COc1cccc(CNC(=O)C[C@H]2CC[C@H](NC(=O)C3CC3)[C@@H](CO)O2)c1	2	8	-1.2
C[C@H](CO)N1C[C@H](C)[C@@H](CN(C)Cc2ccc(Oc3ccccc3)cc2)Oc2c(NC(=O)C3CCCCC3)cccc2C1=O	3	8	-3.0
O=C(NCC[C@H]1CC[C@H](NS(=O)(=O)c2ccccc2)[C@@H](CO)O1)c1cc(Cl)cc(Cl)c1	-9	-11	6.4
C[C@@H]1CN([C@@H](C)CO)C(=O)c2cc(NS(=O)(=O)c3ccccc3)ccc2O[C@@H](C)CCCCO[C@@H]1CN(C)Cc1ccccc1	5	-8	1.6
C[C@H]1CN([C@@H](C)CO)C(=O)c2cccc(NC(=O)Nc3ccc(F)cc3)c2O[C@@H]1CN(C)C(=O)Nc1ccc(C(F)(F)F)cc1	-4	6	-1.8
COc1cc2c(c3c1c(=O)c1cccc(F)c1n3C)C=CC(C)(C)O2	-33	-47	-7.6
C[C@@H]1CN([C@@H](C)CO)C(=O)c2cc(NS(=O)(=O)c3cccs3)ccc2O[C@H]1CN(C)C(=O)Nc1ccc(C(F)(F)F)cc1	-11	-10	-0.6
O=C(Nc1ccc(Cl)cc1)N[C@@H]1CC[C@@H](CCn2cc(C3(O)CCCC3)nn2)O[C@H]1CO	-5	-6	2.4
O=C(C1CCCCC1)N1C[C@@H]2[C@H](c3ccccc31)[C@H](CO)N2C(=O)c1ccccc1	-2	1	-1.3
CS(=O)(=O)N1CC(=O)N2[C@H](CO)[C@@H](c3ccc(C#CC4CCCC4)cc3)[C@H]2C1	2	-3	2.6
COC(=O)C[C@@H]1CC[C@H]2[C@H](COc3ccc(NC(=O)Nc4cccc(C)c4)cc3C(=O)N2C)O1	-5	-12	0.1
C[C@H](CO)N1C[C@H](C)[C@H](CN(C)CC2CCCCC2)Oc2ccc(NC(=O)CCN3CCOCC3)cc2C1=O	-1	-3	1.0
COc1ccc(NC(=O)c2cc(C3CCCCN3C(=O)c3cc(C(C)(C)C)nn3C)on2)c(C)c1 (stereo unspecified)	-4	-29	-2.4
C[C@@H]1CCCCO[C@@H](CN(C)C(=O)Cc2ccccc2)[C@@H](C)CN([C@@H](C)CO)C(=O)c2cc(NC(=O)c3ccccc3)ccc2O1	2	9	2.5
CN(C)CCCNC(=O)C[C@@H]1CC[C@H](NS(=O)(=O)c2ccccc2)[C@H](CO)O1	2	1	1.5
CC(C)NC(=O)N(C)C[C@@H]1OCCCC[C@H](C)Oc2ccc(NS(C)(=O)=O)cc2C(=O)N([C@H](C)CO)C[C@@H]1C	-1	5	-5.1
CN(C)C(=O)c1cccc(-c2ccc3c(c2)[C@H]2[C@H](CCN2C(=O)C2CCOCC2)[C@@H](CO)N3)c1	3	13	-4.1
O=C1C[C@H](c2ccccc2)C(=O)N[C@H](c2ccccc2)C/C=C\C[C@@H](c2ccccc2)N1	0	18	0.5
O=C(NC1CCCCC1)N[C@H]1CC[C@H](CCNS(=O)(=O)c2ccc(Cl)cc2)O[C@@H]1CO	-11	-9	8.6
CC(C)NC(=O)Nc1ccc2c(c1)C(=O)N([C@H](C)CO)C[C@H](C)[C@H](CN(C)S(=O)(=O)c1cn(C)cn1)OCCCC[C@@H](C)O2	10	15	-0.7
Cc1noc(C)c1S(=O)(=O)Nc1ccc2c(c1)C(=O)N([C@H](C)CO)C[C@@H](C)[C@@H](CN(C)Cc1ccc(Oc3ccccc3)cc1)O2	-13	-50	9.1
O=C(C[C@@H]1C=C[C@H](NS(=O)(=O)c2ccc(F)cc2)[C@@H](CO)O1)N1CCc2ccccc2C1	-5	-1	-0.7
C[C@@H]1CN([C@H](C)CO)C(=O)c2cc(C#Cc3cccnc3)cnc2O[C@@H]1CN(C)C(=O)CC1CC1	2	12	-3.5
COc1cccc(S(=O)(=O)Nc2ccc3c(c2)OC[C@@H](C)NC[C@H](C)[C@@H](OC)CN(C)C3=O)c1	2	-2	-0.1
SMILES	rRNA inh HTS	rRNA inh HTS OD600	rRNA inh HTS RFP
CC(C)(C)c1ccc(NC(=O)c2cc(C3CCCN(S(=O)(=O)c4cccc5cccnc45)C3)on2)cc1 (stereo unspecified)	5	22	-3.6
CCCNC(=O)N1C[C@@H](C)[C@@H](OC)CN(C)C(=O)c2cc(NS(=O)(=O)CC(F)(F)F)ccc2OC[C@@H]1C	-2	-15	0.1
CNC[C@H]1Oc2cc(C#CCC3CCCC3)ccc2S(=O)(=O)N([C@H](C)CO)C[C@@H]1C	2	-13	7.0
CCNC(=O)[C@@H]1[C@@H](CO)[C@@H]2Cn3c(ccc(C4=CCCC4)c3=O)[C@@H]2N1C(=O)C1CC1	2	2	-1.4
COc1ccc(C#Cc2cnc3c(c2)C(=O)N([C@@H](C)CO)C[C@@H](C)[C@@H](CN(C)C(=O)CC2CC2)O3)cc1	0	-7	-3.3
C[C@H](CO)N1C[C@H](C)[C@@H](CN(C)C(=O)CC2CC2)Oc2cc(C3=CCCCC3)ccc2S1(=O)=O	-9	-16	2.2
C[C@@H]1CCCCO[C@@H](CN(C)C(=O)c2ccncc2)[C@H](C)CN([C@@H](C)CO)C(=O)c2cc(NC(=O)NC3CCCCC3)ccc2O1	1	0	-0.4
CCCNC(=O)N[C@H]1CC[C@H](CC(=O)NC2CCCCC2)O[C@@H]1CO	4	4	-0.3
N#C[C@H]1[C@@H](c2ccc(C#CC3CCCCC3)cc2)[C@@H](CO)N1C(=O)c1cccc(F)c1	3	6	-3.0
COCC(=O)N1CCC2(CC1)CN(C(=O)COC)[C@H](CO)c1c2c2ccc(OC)cc2n1C	-1	2	1.5
CCCCn1nnnc1C(c1ccccc1)N1CCN(c2cc(C)ccc2C)CC1 (stereo unspecified)	12	2	0.4
C[C@@H]1CN([C@@H](C)CO)C(=O)c2cc(NC(=O)NC3CCCCC3)ccc2O[C@H]1CN(C)Cc1ccc(Oc2ccccc2)cc1	-1	14	2.6
C[C@H]1CN([C@@H](C)CO)C(=O)c2cc(/C=C/c3ccccc3)cnc2O[C@@H]1CN(C)Cc1cccnc1	2	11	-1.0
O=C(N[C@@H]1CC[C@H](CCn2cc(C3(O)CCCC3)nn2)O[C@@H]1CO)C1CC1	0	7	-1.0
Cc1ccc(-c2ccc([C@H]3[C@@H](CO)N4C(=O)CN(C(=O)c5ccc(F)cc5)C[C@H]34)cc2)cc1	-56	-72	-8.8
C[C@H](CO)N1C[C@H](C)[C@@H](CN(C)CC2CCOCC2)Oc2ncc(Br)cc2C1=O	-1	9	-0.9
C[C@@H]1CN([C@@H](C)CO)C(=O)CCCn2nncc2CO[C@H]1CN(C)C(=O)Nc1ccc(N2CCCCC2)cc1	6&-1	6&2	-0.6&4.7
Cn1cnc(S(=O)(=O)N2C[C@H](O)COC[C@@H]3O[C@@H](CC(=O)NC4CCCC4)CC[C@H]32)c1	0	-4	-3.0
COc1ccc([C@H]2N[C@]3(CCCN(Cc4ccc(F)cc4)C3=O)[C@H]3C(=O)N(C)C(=O)[C@@H]23)cc1	-2	-3	-10
CO[C@@H]1CN(C)C(=O)c2ccc(NC(=O)c3ccc4c(c3)OCO4)cc2OC[C@H](C)N(CCC(F)(F)F)C[C@H]1C	-7	-3	11
Nc1[nH]c(C(=O)c2ccccc2)c(-c2cccnc2)c1C(=O)NC1CCCCC1	-6	-5	15
Cc1ccc(S(=O)(=O)N(C)C[C@@H]2OCCCC[C@H](C)Oc3ccc(NC(=O)CCCN(C)C)cc3C(=O)N([C@H](C)CO)C[C@@H]2C)cc1	0	1	5.5
O=C(C[C@@H]1C=C[C@@H](NC(=O)C2CC2)[C@H](CO)O1)NCC1CC1	3	1	-0.9
CN1CCN(C(=O)C[C@@H]2CC[C@@H]3[C@H](COC[C@@H](O)CN3Cc3cccc(F)c3)O2)CC1	2	9	-3.5
COc1ccc(C)cc1NC(=O)ON=C1CCCCC1	6	15	1.4

Reformatted with values ahead of the structure: 4 of the compounds above
rRNA inh HTS	rRNA inh HTS OD600	rRNA inh HTS RFP	compound
-9	-11	6.4	O=C(NCC[C@H]1CC[C@H](NS(=O)(=O)c2ccccc2)[C@@H](CO)O1)c1cc(Cl)cc(Cl)c1
5	-8	1.6	C[C@@H]1CN([C@@H](C)CO)C(=O)c2cc(NS(=O)(=O)c3ccccc3)ccc2O[C@@H](C)CCCCO[C@@H]1CN(C)Cc1ccccc1
-4	6	-1.8	C[C@H]1CN([C@@H](C)CO)C(=O)c2cccc(NC(=O)Nc3ccc(F)cc3)c2O[C@@H]1CN(C)C(=O)Nc1ccc(C(F)(F)F)cc1
-33	-47	-7.6	COc1cc2c(c3c1c(=O)c1cccc(F)c1n3C)C=CC(C)(C)O2

New compounds follow:
SMILES	rRNA inh HTS	rRNA inh HTS OD600	rRNA inh HTS RFP
COc1cccc(-c2cnc3c(NC(C)=O)cc(-c4cccc(C(=O)N(C)C)c4)cn23)c1	4	-2	-1.5
C[C@H]1CN([C@@H](C)CO)C(=O)Cc2cc(NC(=O)C3CC3)ccc2O[C@@H]1CN(C)C(=O)Nc1ccc(F)cc1	7	3	-1.4
C[C@@H]1CN([C@H](C)CO)C(=O)c2cccc(NC(=O)CCCCCC(=O)Nc3ccccc3N)c2O[C@@H]1CN(C)S(=O)(=O)c1ccc(F)cc1	-1	-7	-7.5
CO[C@H]1CN(C)C(=O)c2ccc(NC(=O)c3cnccn3)cc2OC[C@@H](C)N(C(C)=O)C[C@H]1C	4	7	-0.9
CC(C)NC(=O)N[C@@H]1CC[C@H](CC(=O)N2CCCCC2)O[C@@H]1CO	0	8	0.7
C[C@H]1CCCCO[C@@H](CN(C)Cc2ccc3c(c2)OCO3)[C@@H](C)CN([C@@H](C)CO)C(=O)c2cc(NC(=O)Nc3cccc4ccccc34)ccc2O1	-5	-6	8.3
COCC(=O)N(C)C[C@H]1Oc2cc(C3=CCCCC3)ccc2S(=O)(=O)N([C@@H](C)CO)C[C@@H]1C	-3	1	0.0
COc1ccc2c3c(n(C)c2c1)[C@@H](CO)N(CC1CCCCC1)CC31CCN(Cc2nccs2)CC1	-12	-56	40
Cc1noc(C)c1S(=O)(=O)Nc1ccc2c(c1)CC(=O)N([C@H](C)CO)C[C@@H](C)[C@@H](CN(C)C(=O)Nc1ccc(F)cc1)O2	-4	0	-2.7
COC(=O)C1=CCCCC(O)=C1C(=O)OC	3	17	0.3
CCCc1nc2c3ccccc3ccn2c1Cc1ccccc1C(F)(F)F	-6	3	1.0
